# RVFV N-RNA inh – inhibitors of Rift Valley Fever Virus nucleocapsid-RNA interaction | P21700 | RVFV N-RNA binding, fluorescence polarization; hits give low values | % bound, % (no concentration beside the values) | 0.1% of 20,000 active | AID 651828;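 active = between 0 and 58% in either replicate with normal brightness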;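 note: 100 nL library stock added to about 12 µL; 100% = protein and probe without compound and 0% = probe alone; numbers are from one replicate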
# Target sequence (P21700 whole entry, looked up): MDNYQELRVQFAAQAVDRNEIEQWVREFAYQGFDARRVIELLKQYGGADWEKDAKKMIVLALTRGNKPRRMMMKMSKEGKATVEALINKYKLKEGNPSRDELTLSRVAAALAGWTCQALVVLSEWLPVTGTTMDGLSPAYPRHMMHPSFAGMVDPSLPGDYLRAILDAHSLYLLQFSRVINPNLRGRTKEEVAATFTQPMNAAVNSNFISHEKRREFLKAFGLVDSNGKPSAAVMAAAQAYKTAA
# An asterisk follows results filed as active. An excerpt. The share of hits here may be higher or lower than overall.
Compound | RVFV N-RNA inh
CCCN(CCC)S(=O)(=O)c1ccc(C(=O)NC2=C(C(=O)OC)SCC2)cc1 | 96
O=C1CCc2cc(S(=O)(=O)NCc3ccccc3)cc3c2N1CCC3 | 103
CC1CN(c2ccc(NC(=S)N3CCSCC3)cc2)CC(C)O1 (configuration not stated) | 90
CCOC(=O)CNc1cccc(C(=O)O)c1 | 97
O=S(=O)(c1ccccc1)c1nc(-c2cccs2)oc1NCCCn1ccnc1 | 93
CCOc1ccccc1N1CCN(C(=O)c2cc3c(C)cc(C)cc3[nH]2)CC1 | 95
CC(c1ccccc1)N1CCC(c2nc3ccccc3[nH]2)CC1 (configuration not stated) | 106
O=C(Cc1csc(NC(=O)Nc2ccc(Cl)cc2)n1)NCc1ccco1 | 93
O=C(Cc1cnn(-c2ccccc2)c1)c1ccc(O)c(O)c1O | 94
Cn1cc(NC(=O)N2CCc3ccccc3C2)c2ccccc21 | 96
CCC(C)NC(=O)Nc1cccc(C)c1 (configuration not stated) | 94
O=C(O)C1CCCCC1C(=O)NC1CCCCC1 (configuration not stated) | 104

# Additional entries.
Compound | RVFV N-RNA inh
Cc1ccc(C(=O)c2sc3[nH]c(=O)c(C(=O)O)cc3c2N)cc1 | 98
CSC(SC)=C(C#N)S(C)(=O)=O | 91
C[C@@H](O[C@H]1OCCN(Cc2n[nH]c(=O)[nH]2)[C@H]1c1ccc(F)cc1)c1cc(C(F)(F)F)cc(C(F)(F)F)c1 | 96
Nc1sc2c(c1C(=O)NC1CCS(=O)(=O)C1)CCCC2 (configuration not stated) | 97
Cc1ccc(SCCNC(=O)C(C)C)cc1 | 94
Cc1ccc(N2C(=N)S/C(=C\c3ccc(-c4ccc(F)cc4)o3)C2=O)cc1C | 89
COc1ccc(/C=N/N=C2\NC(=O)C(CC(=O)Nc3ccccc3)S2)cc1 (configuration not stated) | 95
CCC1=C(C(=O)OC)C(c2ccc(Cl)cc2)n2ncnc2N1 (configuration not stated) | 90
CCn1c(=NC(=O)c2cccc(N3C(=O)CCC3=O)c2)sc2c(C)ccc(OC)c21 | 95
CN1C(=O)/C(=C\N2CCCCC2)C(=O)NC1=S | 89
O=c1c2ccccc2[nH]c(=S)n1Nc1ccccc1 | 96
O=C(CN(c1ccc(I)cc1)S(=O)(=O)c1ccccc1)Nc1cccnc1 | 94

# Later entries.
Compound | RVFV N-RNA inh
NCCCNC(=O)c1cc2ccccc2[nH]1 | 98
CCCC(=O)Oc1ccc(C(=O)OC)cc1 | 98
C=CCn1c(SCc2nnc(-c3ccccc3)o2)nnc1C(O)c1ccccc1 (configuration not stated) | 92
Cc1cc(/C=C(/C#N)C(=O)NC(C)C)c(C)n1-c1ccc2ccccc2c1 | 91
COc1cc(C=Nc2ccccc2C(N)=O)ccc1O | 94
CN(C)Cc1c(O)ccc2c1O/C(=C\c1ccccc1)C2=O | 48*
CCOCCn1ccc2c(OCC(N)=O)cccc2c1=O | 96
O=C1CC(c2ccco2)CC(O)=C1C=NCCN1CCN(C(=O)Nc2ccc(Cl)cc2)CC1 (configuration not stated) | 94
S=C(c1ccc(N2CCCC2)c(Br)c1)N1CCOCC1 | 98
COc1ccc(NC(=O)c2cc(NC(=O)C3CCCCC3C(=O)O)ccc2N2CCOCC2)cc1 (configuration not stated) | 90
N#Cc1c(NC(=O)c2ccc3ncsc3c2)sc2c1CCC2 | 97
O=C(NNc1nc(-c2ccccc2)cs1)c1cccs1 | 89

# Next section
Compound | RVFV N-RNA inh
S=C(Nc1ccccc1Cl)N1CCCCC1 | 89
Nc1c(C(=O)c2cccs2)sc2nc3c(cc12)CCCC3 | 100
CCOC(=O)N1CCN(C(=O)c2ccc(N(Cc3ccccc3)S(C)(=O)=O)cc2)CC1 | 91
CC(C)(C)NC(=S)N/N=C1/CCCc2occc21 | 89
COCCn1c(SC)nc2c(c1=O)SCC2 | 96
O=C1CNC(c2ccc(Cl)cc2Cl)N1O (configuration not stated) | 111
COC(=O)Cc1c(C)c2ccc(OCC(=O)c3ccc(N4CCCC4)cc3)cc2oc1=O | 94
O=C(NCCC1=CCCCC1)Nc1c[nH]c2ccccc12 | 105
Cc1oc(C(C)(C)C)cc1-c1cc(NC(=O)C2CCC2)n(-c2ccc(I)cc2)n1 | 96
N#CC(C#N)=NNc1ccc(F)cc1C(F)(F)F | 97
CCSc1nc2c(c(=O)[nH]c(=O)n2C)n1C | 100
CCCCC(=O)Nc1nnc(-c2ccc(Cl)cc2)o1 | 91

# Additional compounds.
Compound | RVFV N-RNA inh
NNC(=O)C(O)(c1ccccc1)c1ccccc1 | 106
CCC(=O)Nc1cccc(NC(=O)COc2cc(C)cc(C)c2)c1 | 105
CC1CC(=O)C2=C(C1)OC(N)=C(C#N)C2c1ccccc1 (configuration not stated) | 95
Cc1cc(C)c(C(=O)Nc2cccnc2)c(CC(C)(C)C(=O)O)c1 | 106
CN(C)/C=C/C(=O)c1nn(-c2ccc(F)cc2)ccc1=O | 101
CC(C)(C)NS(=O)(=O)c1ccc(NC(=O)Nc2ccc(Cl)cc2)cc1 | 97
CC(C)(CC(=O)O)CC(=O)NC1CCCCNC1=O (configuration not stated) | 92
CN(C)S(=O)(=O)c1ccc2c(c1)C(=O)c1cc(S(=O)(=O)N(C)C)ccc1-2 | 95
Nc1nc(SCc2cccnc2)[nH]c(=O)c1NC(=O)c1ccco1 | 94
CC[C@H](CO)Nc1nc(NCc2ccccc2)c2ncn(C(C)C)c2n1 | 106
CSc1ccc(-c2sc(C)nc2C)nn1 | 95
O=S(=O)(c1ccc(F)cc1)c1cc(C(F)(F)F)cc(C(F)(F)F)c1 | 95

# Remaining list, next part:
Compound | RVFV N-RNA inh
CO[C@H]1C=CO[C@@]2(C)Oc3c(C)c(O)c4c(O)c(c5c(nc6cc(C)ccn65)c4c3C2=O)NC(=O)C(C)=CC=C[C@H](C)[C@H](O)[C@@H](C)[C@@H](O)[C@@H](C)[C@H](OC(C)=O)[C@@H]1C | 95
COc1ccccc1/C=C/CN1CC(C)OC(C)C1 (configuration not stated) | 94
CCC(=O)Oc1ccc2c(C)c(C)c(=O)oc2c1 | 95
O=c1cc(-c2ccccc2)nc(SCCOc2ccc3c(c2)OCO3)[nH]1 | 88
Cc1onc(-c2ccccc2)c1CNC(=O)c1ccccc1C(=O)O | 98
CCN(CC)C(=O)CN1C(=O)COCC1=O | 102
Cc1onc(-c2c(F)cccc2Cl)c1C(=O)NC1C2CC3CC(C2)CC1C3 (configuration not stated) | 93
CSc1nnc(SCC(N)=S)s1 | 95
Cc1cc(C)c(C#N)c(Oc2ccccc2Br)n1 | 97
Cc1cc(NC(=O)CN2CC(C)CC(C)C2)nc2c1c(=O)oc1ccccc12 (configuration not stated) | 106
O=C(Nc1ccc(Cl)cn1)c1ccc(COCC(F)(F)C(F)F)o1 | 113
CCCC(=O)NCc1ccc(OC)cc1 | 93

# (cont.)
Compound | RVFV N-RNA inh
CC1CCN(CC(=O)Nc2ccc(Cl)cc2Cl)CC1 | 95
CCOC(=O)C1N=C2C(=[N+]([O-])C1N)COC(C)(C)/C2=N\O (configuration not stated) | 95
CC1CCCCN1C(=O)CSc1nnc2sc3ccccc3n12 (configuration not stated) | 99
O=C1CC(Nc2ccc3c(c2)OCO3)C(=O)N1C1CCCCC1 (configuration not stated) | 93
CCc1cc(C(=O)Cc2ccc3c(c2)OCCCO3)c(O)cc1OC | 95
Cc1cc(C)cc(NC(=O)Oc2ccccc2N2CCCCC2)c1 | 94
COc1cc(NC(=O)Nc2cccc3ccccc23)ncn1 | 92
OCc1ccc(-c2nn(Cc3ccccc3)c3ccccc23)o1 | 94
O=C1c2ccccc2C(O)(c2ccccc2)N1CCc1ccccc1 (configuration not stated) | 93
Cc1ccc(OCCN2CCN(c3nc(NCc4ccccc4)c4ccccc4n3)CC2)cc1 | 96
CCOC(=O)Cn1cnc2c(sc3nc(C)cc(C)c32)c1=O | 91
Cc1ccc(S(=O)(=O)Nc2cccc3ccc(-n4nc(C)cc4C)nc23)cc1 | 97

# Following part.
Compound | RVFV N-RNA inh
Cc1cc(Cl)ccc1OCCCC(=O)NN1CCOCC1 | 105
COc1ccccc1NC(=O)C(c1ccccc1)N1CCOCC1 (configuration not stated) | 92
O=C(CN1C(=O)COc2ccc(Cl)cc21)N1CCc2ccccc21 | 99
COC(=O)C1C(=O)CC(=O)CC1c1ccco1 (configuration not stated) | 105
CC1SC(C)C(=O)N(CC(=O)Nc2ccc3c(c2)OCCO3)C1=O (configuration not stated) | 92
CC(=O)Nc1cccc(-c2nnc(SCc3cccc(Cl)c3)n2C)c1 | 102
Cc1ccc2nc(C)c3cc(C)oc3c2c1 | 83
O=C(CC1OC(=O)c2ccccc21)c1cc(O)ccc1O (configuration not stated) | 97
O=C(Nc1csnc1-c1c(Cl)cccc1Cl)NN1CCOCC1 | 92
CN(C)c1ccc(C(=S)N2CCN(c3ccccc3F)CC2)cc1 | 89
COc1cc(CN2CCN(c3cccc(Cl)c3)CC2)ccc1O | 107
Cc1nc2ccc(F)cc2c2c1COC2 | 102

# The list goes on:
Compound | RVFV N-RNA inh
O=C(Nc1ccc2c(c1)OCCO2)c1csc2c1CCCC2 | 100
Cc1ccccc1-c1nnn(Cc2ccc(-c3nn[nH]n3)cc2)n1 | 97
CCc1cc2c3c(c1)/C(=C1/SC(N)=NC1=O)C(=O)N3C(C)(C)C=C2C | 90
COc1ccc(OC(C)C(=O)Nc2cccc(C)n2)cc1 (configuration not stated) | 78
CCc1ccccc1N(CC(=O)NC)S(C)(=O)=O | 93
CCN1CCN(Cc2cc(Br)c(O)c(OC)c2)CC1 | 92
N#CC(C#N)=C/C=C(\Sc1nnnn1-c1ccccc1)c1ccccc1 | 96
Cc1nc2c(C)cccn2c1/C(O)=C1\C(=O)C(=O)N(CCN(C)C)C1c1cccnc1 (configuration not stated) | 99
O=C(Nc1ccccc1OC(F)F)c1ccccc1 | 94
CC1CN=C(N(C)C(=O)Nc2cccc(Cl)c2)S1 (configuration not stated) | 99
CCCc1cnc(N2CCN(CC(=O)Nc3ccc4c(c3)OCCO4)CC2)nc1 | 95
C/C(=C\C(=O)c1ccc(Cl)cc1)N1CCOCC1 | 94

# New compounds follow.
Compound | RVFV N-RNA inh
O[C@@H]1C2C3CC4C5C3C1C(c1ccccc1)(C42)[C@H]5O (some centres not stated) | 112
Cc1cc(C)n(-c2nc(NC(C)C)nc(NC(C)(C)C)n2)n1 | 94
CC1CN(CCC(=O)Nc2ccc(S(N)(=O)=O)cc2)CC(C)O1 (configuration not stated) | 94
CC1SCC(=NOCc2ccccc2)CS1 (configuration not stated) | 91
O=C(O)c1cc(=O)[nH]c(=O)[nH]1 | 103
C/S(=N\S(=O)(=O)c1cccc2nonc12)c1ccc(C(F)(F)F)cn1 (configuration not stated) | 92
On1c(-c2cccc(F)c2)nc2c1CCc1nonc1-2 | 90
CCn1c(C)cc(/C=C2/NC(=O)N(c3ccccc3)C2=O)c1C | 97
Cc1cc(OCc2ccc(/C=C(/C#N)S(=O)(=O)c3ccccc3)o2)ccc1Cl | 100
Cc1ccccc1NC(=O)Nc1sc(=S)n(C)c1C | 99
O=C1CSC(=O)N1CC(O)COc1ccc(OCC(O)CN2C(=O)CSC2=O)cc1 (configuration not stated) | 100
Cc1cc(/C=C(/C#N)c2ccc(F)cc2)c(C)n1Cc1ccccc1 | 103

# (continued)
Compound | RVFV N-RNA inh
CN(C)C(C#N)c1cn(C)c2ccccc12 (configuration not stated) | 94
Nc1ccc(Sc2nnnn2-c2ccccc2)c(Cl)c1 | 97
COC(=O)c1c(N)sc(Cc2ccccc2)c1C | 92
CCS(=O)(=O)Nc1ccc(C(=O)N(C)Cc2ccccc2)cc1 | 99
Fc1c(F)c(N2CCOCC2)c(F)c(F)c1-c1ccccc1 | 97
CC(NC(=S)NC1CCCCC1)C(c1ccccc1)N1CCN(C)CC1 (configuration not stated) | 103
CCN(C(=O)c1ccc(Br)o1)C1CCS(=O)(=O)C1 (configuration not stated) | 92
Cc1cccc(-c2nc(CCNC(=O)/C=C/c3ccco3)cs2)c1 | 97
Cc1ccc(C(=O)Oc2ccccc2N2CCOCC2)cc1 | 96
CCOC(=O)N1CCN(C(=O)CCN2C(=O)/C(=C\c3ccco3)SC2=S)CC1 | 99
C/C(=N\NC(=S)N1CCCC1)c1ccccc1 | 101
CN(C)Cc1ccccc1C(O)c1ccccc1 (configuration not stated) | 93

# Two of the compounds above, field by field:
> Cc1oc(C(C)(C)C)cc1-c1cc(NC(=O)C2CCC2)n(-c2ccc(I)cc2)n1
  RVFV N-RNA inh: 96
> O=c1cc(-c2ccccc2)nc(SCCOc2ccc3c(c2)OCO3)[nH]1
  RVFV N-RNA inh: 88

# Next section:
Compound | RVFV N-RNA inh
Cc1cccc(C(=O)OC(C(=O)c2ccccc2)c2ccccc2)c1O (configuration not stated) | 96
CC(C)c1ccccc1NC(=O)c1ccc(Br)o1 | 99
Cc1ccc(C)c(NC(=S)NCCCO)c1 | 90
CCCN(CCC)C(=O)c1ccc(OC)cc1 | 77
Cc1c(C(=O)CSc2n[nH]c(=O)n2Cc2ccco2)sc2ccc(Cl)cc12 | 93
Cc1ccc(-n2nnnc2-c2c[nH]c3cc(Cl)ccc23)cc1 | 89

# Structural class: the entries above containing an NH in an aromatic ring (14)
Compound | RVFV N-RNA inh
CCOc1ccccc1N1CCN(C(=O)c2cc3c(C)cc(C)cc3[nH]2)CC1 | 95
CC(c1ccccc1)N1CCC(c2nc3ccccc3[nH]2)CC1 (configuration not stated) | 106
Cc1ccc(C(=O)c2sc3[nH]c(=O)c(C(=O)O)cc3c2N)cc1 | 98
C[C@@H](O[C@H]1OCCN(Cc2n[nH]c(=O)[nH]2)[C@H]1c1ccc(F)cc1)c1cc(C(F)(F)F)cc(C(F)(F)F)c1 | 96
O=c1c2ccccc2[nH]c(=S)n1Nc1ccccc1 | 96
NCCCNC(=O)c1cc2ccccc2[nH]1 | 98
O=C(NCCC1=CCCCC1)Nc1c[nH]c2ccccc12 | 105
CCSc1nc2c(c(=O)[nH]c(=O)n2C)n1C | 100
Nc1nc(SCc2cccnc2)[nH]c(=O)c1NC(=O)c1ccco1 | 94
O=c1cc(-c2ccccc2)nc(SCCOc2ccc3c(c2)OCO3)[nH]1 | 88
Cc1ccccc1-c1nnn(Cc2ccc(-c3nn[nH]n3)cc2)n1 | 97
O=C(O)c1cc(=O)[nH]c(=O)[nH]1 | 103
Cc1c(C(=O)CSc2n[nH]c(=O)n2Cc2ccco2)sc2ccc(Cl)cc12 | 93
Cc1ccc(-n2nnnc2-c2c[nH]c3cc(Cl)ccc23)cc1 | 89

# Compound activity as filed in PubChem BioAssay.
